# Rango complex inh: qHTS Assay for Inhibitors of Rango (Ran-regulated importin-beta cargo) - Importin beta complex formation; Importin subunit beta-1 (Homo sapiens), Q14974; Rango CFP/YFP FRET sensor + importin beta, 45 min; Potency, µM (doses to about 92.2 µM), inactives show top-dose inhibition of complex formation; hit rate 0.031% among 340,000; AID 540263, 2011; active = rising FRET ratio curve, often small or poorly fitted; inconclusive = mostly compound fluorescence or quenching in the first reads; inactive = flat curves in all reads;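 further: potency means the concentration at half of the fitted maximal effect; 0% = DMSO wells and 100% = buffer wells lacking importin beta; nearly all actives have a fitted effect of over 15% in size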
#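 FRET biosensor Rango (snurportin 1 IBB between N-terminal EYFP and C-terminal Cerulean), 50 nM in PBS/1 mM DTT/0.02% Tween-20/0.1% BSA, preincubated 5 min RT with compound; 0.125 microM importin beta added, 45 min RT, CFP/YFP FRET ratio read.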
# GLA inh pH 4.5: qHTS Assay for Inhibitors of Human alpha-Galactosidase at pH 4.5; Alpha-galactosidase A (Homo sapiens), P06280; purified enzyme, 4-MU-alpha-Gal fluorescence, pH 4.5; activity change, negative = inhibition, % at 105 µM; 230,000 tested, under 10 active; AID 1467, 2008; inconclusive = small, poorly fitted or top-dose-only inhibition, or a rising curve; inactive = flat fitted curve, though single readings scatter; no compound was filed as active;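 further: 0% = full activity with enzyme and -100% = basal without enzyme; dose as in the result columns while the protocol names 77 µM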
# Target sequence (P06280 whole entry, looked up): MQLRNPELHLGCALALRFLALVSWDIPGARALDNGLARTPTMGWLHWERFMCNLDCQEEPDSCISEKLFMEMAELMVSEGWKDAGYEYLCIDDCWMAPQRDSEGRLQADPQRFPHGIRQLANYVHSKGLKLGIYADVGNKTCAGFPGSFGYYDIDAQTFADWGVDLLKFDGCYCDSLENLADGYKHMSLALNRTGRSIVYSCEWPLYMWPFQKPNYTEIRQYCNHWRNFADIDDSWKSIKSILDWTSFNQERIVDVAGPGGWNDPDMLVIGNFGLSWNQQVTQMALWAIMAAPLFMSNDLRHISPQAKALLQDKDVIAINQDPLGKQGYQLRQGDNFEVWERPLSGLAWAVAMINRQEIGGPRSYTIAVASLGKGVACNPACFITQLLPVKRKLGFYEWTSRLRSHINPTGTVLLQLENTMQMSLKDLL
# miR-21 reporter: qHTS Assay for Modulators of miRNAs and/orActivators of miR-21 | 340,000 tested, under 10 active | HeLa miR-21 FLuc reporter, luciferase, 48 h | Potency, µM (series often up to 38.3 µM), inactives show at the highest dose reporter change, positive = more light; active = well fitted rising curve with a large enough effect; inconclusive = small, poorly fitted or top-dose-only effect; inactive = no such curve, though single readings can be large or run the other way;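 further: % of control where 0% means no effect; miR-21 action dims this reporter so a rising signal means less miR-21 action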
#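 HeLa cells stably expressing CMV-driven firefly luciferase with a downstream miR-21 binding sequence, endogenously expressing miR-21, were treated with titrations (up to about 40uM final) for 48 hours at 37 degree Celsius. Luciferase luminescence was read after lysis.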
# Rango dissoc inh: qHTS Assay for Inhibitors of RanGTP induced Rango (Ran-regulated importin-beta cargo) - Importin beta complex dissociation; Snurportin-1 (Homo sapiens) + GTP-binding nuclear protein Ran (Homo sapiens) + Importin …; Biochemical FRET Rango-importin beta, RanGTP-induced dissociation; Potency, µM (top dose mostly 46.1 µM), inactives show at the highest dose activity change, negative = inhibition; hit rate 0.071% among 340,000; AID 540253, 2011; active means falling FRET ratio curve, often poorly fitted, with flat reads before Ran was added; inconclusive means other falling curves, or compound fluorescence or quenching; inactive means flat or rising ratio curve;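 further: potency means the concentration at half of the fitted maximal effect; % of control where 0% means no effect; nearly all actives have a fitted effect of over 45% in size; -100% = wells without RanGTP and RCC1; the record marks most hits as doubtful in a second field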
#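 Quantitative HTS using a FRET biosensor: 0.1 uM Rango, 0.25 uM importin beta, 0.6 uM Ran, 2 mM GTP, 0.2 uM RCC1 final, PBS with DTT, Tween-20 and BSA. Post-read taken 45 min after Ran addition.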
# * marks the source's active call; other numbers are inactive results; ? = inconclusive; nt = no result given; [ ] = remark or other dose. These rows are one share of the data; the hit share may differ from the screen's.
Rango complex inh,GLA inh pH 4.5,miR-21 reporter,Rango dissoc inh,Structure
?,-11,19%,?,COc1ccccc1NS(=O)(=O)c1cc([N+](=O)[O-])ccc1N/N=C/c1c[nH]c2ccccc12
-0.6%,nt,-6%,2%,O=C(Nc1ccncc1)c1ccc(Cl)cc1
1.6%,nt,-2%,4%,COc1ccc(CCC(=O)OCc2csc(CC(=O)Nc3ccccc3C)n2)cc1
-11%,-1,11%,0%,COC(=O)c1c[nH]n2c(=O)c(Cc3ccc(F)cc3Cl)c(C)nc12
-2.4%,nt,nt,15%,CCN(CC)CCNC(=O)c1ccc(NC(=O)c2cccc(S(=O)(=O)N3CCCCCC3)c2)cc1
5.3%,7,-24%,-20%,O=C(NCc1ccc2c(c1)OCO2)c1ccc(N2CCCC2=O)cc1
1.1%,nt,nt,6%,Cc1ccc(C(=O)CCC(=O)N2CCN(c3ccccc3O)CC2)cc1
-5.9%,2[21.1 µM],0%,-17%,O=C(COC(=O)Cc1ccccc1F)Nc1ccc(Cl)cn1
3.5%,1,4%,-4%,Cc1cc2ccccn2c1C(=O)c1cccc(S(=O)(=O)N2CCOCC2)c1
0.8%,5[21.1 µM],1%,13%,COc1ccc(C2Nc3ccccc3C(=O)N2NS(C)(=O)=O)cc1OC (centres undefined)
0.0%,nt,-6%,-2%,Cc1ccc(N(Cc2cc3ccc(C)cc3[nH]c2=O)S(=O)(=O)c2ccccc2)c(C)c1
4.1%,nt,nt,-1%,O=C(Nc1ncccc1O)c1ccc2c(c1)OCCO2

# 3 compounds from above, ordered by the value under Rango complex inh, lowest first.
Rango complex inh,GLA inh pH 4.5,miR-21 reporter,Rango dissoc inh,Structure
-2.4%,nt,nt,15%,CCN(CC)CCNC(=O)c1ccc(NC(=O)c2cccc(S(=O)(=O)N3CCCCCC3)c2)cc1
0.0%,nt,-6%,-2%,Cc1ccc(N(Cc2cc3ccc(C)cc3[nH]c2=O)S(=O)(=O)c2ccccc2)c(C)c1
3.5%,1,4%,-4%,Cc1cc2ccccn2c1C(=O)c1cccc(S(=O)(=O)N2CCOCC2)c1

# (further entries)
Rango complex inh,GLA inh pH 4.5,miR-21 reporter,Rango dissoc inh,Structure
-3.8%,-4,-1%,6%,COc1ccc(NC(=S)N(Cc2ccc(C)cc2)Cc2ccccn2)cc1
1.3%,nt,nt,0%,CC(N)C(=O)NC(C(=O)N1CCCC1C(=O)NC(c1ccccc1)c1ccccc1)C(C)C (centres undefined)
?,-18,-2%,2%,CC(C)(C)N(Cc1ccccc1)C(=O)COC(=O)CCc1c[nH]c2ccccc12
-1.6%,2,-2%,-6%,CCOC(=O)C1=C(C(F)(F)F)Nc2ncnn2C1c1ccc(OC)cc1OC (centres undefined)
-0.4%,nt,-6%,0%,Cn1ccnc1C(OC(=O)c1ccc(Cl)cc1)C(F)(F)F (centres undefined)
?,5,-9%,-19%,CCN(CC)C(=S)Nc1cc(C(=O)OC)ccc1C(=O)OC
-0.6%,nt,nt,1%,CCOc1ccccc1NC(=O)COC(=O)C1CCC1
-5.9%,7,-7%,0%,CC(C)(C)NC(=O)Cn1c(=O)oc2ccc(Cl)cc21
-5.1%,5,-58%,12%,CCCCOc1ccc(-c2ncc(C(=O)O)c(C)n2)cc1
0.2%,8,-14%,-6%,CCC1Sc2ccccc2N(CC(=O)NC2CCCCC2)C1=O (centres undefined)
-0.9%,-2,-1%,0%,O=[N+]([O-])c1ccc(C2=Nn3c(Cn4nnc5ccccc54)nnc3SC2)cc1
-0.3%,-26,-2%,22%,CCn1ccnc1CNCc1cn(-c2cc(C)ccc2C)nc1-c1ccccc1

# Next part
Rango complex inh,GLA inh pH 4.5,miR-21 reporter,Rango dissoc inh,Structure
-0.4%,4[21.1 µM],0%,-10%,Cc1cc(C)cc(N2C(=O)CSC2c2ccccn2)c1 (centres undefined)
-0.3%,8,-12%,-4%,Cc1ccc(C2CC(c3ccc(Cl)cc3)n3nc(N)nc3N2)cc1 (centres undefined)
?,5,5%,2%,CC1CN(c2ccc(Oc3ccccc3)cc2)c2nc3c(c(=O)n(CC(N)=O)c(=O)n3C)n2C1 (centres undefined)
3.6%,nt,10%,-4%,COc1ccc(Cl)cc1NC(=O)CSC1=NN2CCCC(=O)N=C2S1
-1.9%,nt,nt,-17%,Cc1noc(C)c1C(=O)Nc1cc(S(=O)(=O)N2CCCCC2)ccc1N(C)C
1.8%,-2,-10%,13%,CCOc1cccc2cc(C(=O)NCc3cccnc3)c(=O)oc12
-0.6%,nt,-1%,5%,Cc1ccc(NC(=O)C2CCCN(C(=O)Nc3ccc(F)cc3)C2)cc1 (centres undefined)
0.9%,-5,3%,-2%,COc1cc(CC(=O)OCC(=O)Nc2ccc(Cl)c(S(=O)(=O)N(C)C)c2)cc(OC)c1OC
-0.8%,-8,-28%,-3%,Cc1ccc(C(=O)CC(=O)COc2ccc(Cl)cc2)cc1
2.3%,5,-59%,18%,CCN1CCN(c2ncnc3c2cnn3-c2ccc(Cl)cc2)CC1
1.9%,nt,nt,13%,C/C(=N\Nc1cc(Cl)nc(C)n1)c1ccc(C)cc1
0.4%,0,-8%,-5%,O=C(Nc1ccsc1C(=O)NC1CCCCC1)c1ccccc1

# (next part)
Rango complex inh,GLA inh pH 4.5,miR-21 reporter,Rango dissoc inh,Structure
-0.5%,3,-27%,1%,O=C1N=C(N2CCCCC2)S/C1=C\c1cn[nH]c1-c1ccccc1
-7.9%,-2[21.1 µM],-17%,?,CCCN1C(=O)/C(=C/c2ccccc2OCc2ccc(C(=O)O)cc2)NC1=S
0.4%,nt,nt,10%,O=C(COC(=O)CNC(=O)C1CCCCC1)Nc1cccc(F)c1
0.6%,nt,nt,9%,Cc1cc(Br)ccc1NC(=O)CN(C)C(=O)c1cccc(S(=O)(=O)N2CCN(C)CC2)c1
?,nt,-25%,?,COc1ccc(C=Nc2cccnc2N)cc1
?,-25,-29%,?,O=[N+]([O-])c1ccc(N=Cc2sc3ccccc3c2O)cc1
-3.2%,nt,nt,12%,COCC(C)n1c(SCC(=O)N2CCOCC2)nc2ccccc2c1=O (centres undefined)
-0.1%,nt,nt,-10%,COc1ccc(-n2c(=O)c(CCC(=O)N(C)Cc3cccs3)nc3ccccc32)cc1
5.9%,-20,-4%,-15%,Cn1c(SCC(=O)OCC(=O)c2ccccc2)nnc1-c1cccs1
-2.7%,5,2%,-8%,CCOC(=O)C(O)(CCC(O)(C(=O)OCC)C(=O)OCC)C(=O)OCC
-0.8%,nt,-7%,-6%,COc1ccc(/C=C(\C#N)C(=O)NCc2ccccc2)cc1
?,-11,-31%,-31%,c1ccc(OCCn2c(-c3ccco3)nc3ccccc32)cc1

# Remaining list, next part
Rango complex inh,GLA inh pH 4.5,miR-21 reporter,Rango dissoc inh,Structure
0.1%,nt,-43%,-2%,O=C(Nc1nc(-c2ccccc2)cs1)c1ccccc1F
5.0%,-5,2%,-8%,O=C(NC(=S)NCCCN1CCOCC1)c1ccco1
2.3%,-3,-2%,10%,CC(=O)c1sc(NS(=O)(=O)c2ccc(C)cc2)nc1C
9.8%,nt,-2%,1%,COc1ccc(N(C(=O)c2cccnc2)S(=O)(=O)c2ccc(F)cc2)cc1
-0.2%,nt,0%,-2%,COc1ccc(S(=O)(=O)N(CC(=O)N2CCCCCC2)c2ccccc2OC)cc1
0.7%,-15,-9%,1%,Cc1ccn2cc(CCNS(=O)(=O)c3ccc(F)c(C(F)(F)F)c3)nc2c1
?,nt,nt,-3%,CCOc1cc(C(=O)CCC(=O)OCC(=O)Nc2ccc(F)cc2)ccc1O
-0.7%,nt,12%,?,CCc1ncc(CN2CCC(C(=O)Nc3cccc(-c4cscn4)c3)CC2)cn1
-0.7%,2,0%,-6%,COc1ccccc1NC(=O)CCN1CCN(Cc2ccccc2)CC1
-3.4%,-1,-1%,1%,Cc1ccc(NC(=O)COc2ccc(Br)cn2)cc1
0.2%,-1,0%,-4%,CCOc1ccc(N2C(=O)c3ccccc3C2=O)cc1
0.6%,nt,nt,1%,NC(=O)C1=C(N=C2CCCCC2)CCCC1

# (cont.)
Rango complex inh,GLA inh pH 4.5,miR-21 reporter,Rango dissoc inh,Structure
-0.6%,nt,nt,9%,O=C(CCN1C(=O)CSc2ccccc21)Nc1ccc(C(F)(F)F)cc1
-0.1%,-2,-15%,4%,N#Cc1ccc(CSc2nnc(-c3cccnc3)n2-c2ccccc2)cc1
-4.6%,nt,1%,0%,NS(=O)(=O)c1ccc(CCNS(=O)(=O)c2cccc3nsnc23)cc1
-0.1%,nt,0%,19%,Fc1ccc2nc3c(nc2c1)CCCC3
0.9%,0,-1%,2%,CCN(CC)C(=O)CSc1nc2sc3c(c2c(=O)n1-c1ccc(C)cc1)CC(C)(C)SC3
1.4%,1,8%,-5%,Cc1cc(C)nc(NC(=NCCc2c[nH]c3ccccc23)NC(=O)c2ccco2)n1
-0.6%,-8,-5%,-1%,COc1ccc2c(c1)C(C)=CC(C)(C)N2C(=O)CSc1nnc(-c2ccc(C)cc2)o1
-0.2%,nt,nt,0%,COc1ccc(COC(=O)C2CCN(S(=O)(=O)c3ccc(C)cc3)CC2)cc1
0.5%,8,-7%,-8%,Cc1cc(C)nc(Sc2nc(Nc3ccccc3)nc(Sc3nc(C)cc(C)n3)n2)n1
2.3%,-1,-1%,-3%,CCN(CC)S(=O)(=O)c1ccc(NS(=O)(=O)c2cccs2)cc1
0.7%,-2,-16%,-12%,O=C(O)c1cccc(NC(=O)c2cc(-c3cccc(Cl)c3)nc3ccccc23)c1
2.9%,2,0%,-1%,COc1ccc(OCC#CCn2ccnc2)cc1

# Next section:
Rango complex inh,GLA inh pH 4.5,miR-21 reporter,Rango dissoc inh,Structure
?,-8,-4%,-13%,C=CCN1C(=O)/C(=C/c2cccs2)S/C1=N\S(=O)(=O)c1ccc(F)cc1
2.1%,5,-11%,2%,COc1ccc(CCN(C)C(=O)CNC(=O)c2ccccc2F)cc1OC
4.7%,nt,nt,-13%,CCOC(=O)N1CCN(C(=O)CSc2ncnc3sccc23)CC1
0.0%,nt,nt,4%,CC1C(=O)C(C)C(c2ccccc2)N(N=O)C1c1ccccc1 (centres undefined)

# Molecules listed so far with a Cl atom (12):
Rango complex inh,GLA inh pH 4.5,miR-21 reporter,Rango dissoc inh,Structure
-0.6%,nt,-6%,2%,O=C(Nc1ccncc1)c1ccc(Cl)cc1
-11%,-1,11%,0%,COC(=O)c1c[nH]n2c(=O)c(Cc3ccc(F)cc3Cl)c(C)nc12
-5.9%,2[21.1 µM],0%,-17%,O=C(COC(=O)Cc1ccccc1F)Nc1ccc(Cl)cn1
-0.4%,nt,-6%,0%,Cn1ccnc1C(OC(=O)c1ccc(Cl)cc1)C(F)(F)F (centres undefined)
-5.9%,7,-7%,0%,CC(C)(C)NC(=O)Cn1c(=O)oc2ccc(Cl)cc21
-0.3%,8,-12%,-4%,Cc1ccc(C2CC(c3ccc(Cl)cc3)n3nc(N)nc3N2)cc1 (centres undefined)
3.6%,nt,10%,-4%,COc1ccc(Cl)cc1NC(=O)CSC1=NN2CCCC(=O)N=C2S1
0.9%,-5,3%,-2%,COc1cc(CC(=O)OCC(=O)Nc2ccc(Cl)c(S(=O)(=O)N(C)C)c2)cc(OC)c1OC
-0.8%,-8,-28%,-3%,Cc1ccc(C(=O)CC(=O)COc2ccc(Cl)cc2)cc1
2.3%,5,-59%,18%,CCN1CCN(c2ncnc3c2cnn3-c2ccc(Cl)cc2)CC1
1.9%,nt,nt,13%,C/C(=N\Nc1cc(Cl)nc(C)n1)c1ccc(C)cc1
0.7%,-2,-16%,-12%,O=C(O)c1cccc(NC(=O)c2cc(-c3cccc(Cl)c3)nc3ccccc23)c1
